Screening results: PubChem, National Center for Advancing Translational Sciences (NCATS)
VACV mCherry inh: vaccinia inhibition (mCherry reporter); Vaccinia virus mCherry reporter infection, fluorescence; about a quarter of the inactives have no number; Potency, µM (series often up to 36.5 µM), for inactives: top-dose activity change, negative = inhibition, usual class: inhibitors; 310,000 compounds, 0.63% hits; active = well fitted inhibition curve with a large enough effect; inconclusive = small, poorly fitted or top-dose-only effect; inactive = no such curve, though single readings can be large or run the other way; tested in A549 cells; further: nearly all actives have a fitted effect of over 35% in size; inactives centre near -10
Vaccinia Venus: inhibitors of vaccinia virus (Venus reporter). Vaccinia virus Venus reporter expression, fluorescence. 330,000 compounds, 0.46% hits. Potency, µM (highest dose often 36.5 µM), without a hit: top-dose activity change, negative = inhibition, usual class: inhibitors; active means well fitted inhibition curve with a large enough effect; inconclusive means small, poorly fitted or top-dose-only effect; inactive means no such curve, though single readings can be large or run the other way; tested in A549 cells; further: nearly all actives have a fitted effect of over 30% in size; inactives centre near -10
Numbers without * were called inactive; i = inactive; ? = inconclusive; . = no result given; [ ] = dose if it differs, or a comment. On the % scale 0 is the no-effect control and ±100 the full control effect; potency means the concentration at half of the fitted maximal effect.

SMILES	VACV mCherry inh	Vaccinia Venus
Cc1sc2nc(CSCC(=O)Nc3c(F)cccc3F)[nH]c(=O)c2c1C	-18%	-10%
Cc1ccc(C)c(NC(=O)C[n+]2ccccc2)c1	-11%	-17%
CCCCNC(=O)COC(=O)CCC(=O)c1cccs1	i	-4%
Cc1cnc(C(=O)Nc2ccccc2-n2cccc2)cn1	i	-16%
O=C(NCc1ccccc1F)C(=O)NCC(c1ccco1)S(=O)(=O)c1ccccc1 (stereo not given)	-15%	-7%
CC(=O)c1ccc(NC(=O)CN2CCN(CC(=O)Nc3ccc(C(C)=O)cc3)CC2)cc1	i	-19%
COc1ccc(-c2nc3ccccc3c(=O)n2CCOc2cc(C)ccc2C)cc1	-15%	-2%
COc1ccc(S(N)(=O)=O)cc1C(=O)OCCCOc1ccc(F)cc1	-11%	-14%
Cc1ccc(-c2nc(C)c(CCNC(=O)c3cccs3)s2)cc1	-7%	-14%
CCOc1cc(S(=O)(=O)NCc2ccc(OC)cc2)c(OCC)cc1-n1cnnn1	-11%	?
O=c1c2ccccc2nc(/C=C/c2ccccc2)n1-c1ccccc1O	-9%	-12%
Cn1ccc2c(N3CCCCCC3)cc3c(c21)C1CCC3O1 (stereo not given)	61%[activator]	22%
CSCCC(NS(=O)(=O)c1c(Cl)cccc1Cl)C(=O)O (stereo not given)	-9%	-20%
COC(=O)c1cn(C)c2ccc(S(=O)(=O)N3CCOCC3)cc2c1=O	i	-8%
COCCn1c(N)c(N(Cc2ccccc2)C(=O)C2CCCC2)c(=O)[nH]c1=O	-1%	-5%
Clc1cccc(NCc2nnc3n2CCCCC3)c1	?	-1%
O=C1CN=C(c2ccccc2)c2c(sc3c2CCCC3)N1	?	-30%
O=C(Cc1c[nH]c2ccccc12)NC1(C(=O)NC2CCCCC2)CCCCC1	-1%	-14%
COCCNC(=O)c1cc2c(-c3ccc(Cl)cc3)nn(C)c2s1	12%	0%
COc1cc(-c2nnc(SCC(=O)Nc3cccc(C#N)c3)o2)cc(OC)c1OC	-17%	1%
Cc1onc(-c2ccccc2Cl)c1C(=O)Nc1ccc2c(c1)OCO2	-1%	-19%
COc1ccc(C2NC(=O)N(C)C3=C2C(=O)N(c2ccc(F)cc2)C3)cc1 (stereo not given)	2%	2%
O=C(NC(=S)Nc1cccc([N+](=O)[O-])c1)C1CCCC1	-14%	-9%
Cc1ccc2sc(N3CCN(C(=O)C4=COCCO4)CC3)nc2c1C	0%	-14%
Nc1ccc(-c2nc3ncccc3o2)c(Cl)c1	-3%	14%
Cc1cc(NC(=O)Nc2cccc(C)c2C)no1	0%	-15%
COc1cccc(N=Cc2c(O)c3ccccc3oc2=O)c1	-22%	-21%
COc1ccccc1N1CCN(C(=O)c2ccc([N+](=O)[O-])s2)CC1	?	?
CC(=O)N1CCN(CC(=O)Nc2ccc(Cl)c(S(=O)(=O)N(C)C)c2)CC1	i	-23%
COc1ccc(CCNC(=S)NC(=O)c2cccc([N+](=O)[O-])c2)cc1OC	-25%	-14%
CC1CCCN(C(=O)c2sc3cc([N+](=O)[O-])ccc3c2Cl)C1 (stereo not given)	.	?
O=C(CN(C(=O)CCC(=O)Nc1ccccn1)c1ccc2c(c1)OCCO2)NCCc1ccccc1	i	-11%
CC(C)CNC(=O)C1(C)CCCN1C(=O)c1cccnc1Oc1ccccc1 (stereo not given)	17%	-9%
Cc1ccc(OCCCC(=O)Nc2nc3ccccc3[nH]2)cc1	-11%	-4%
Cc1cccc(Cn2c(N3CCCCC3C)nc3c2c(=O)[nH]c(=O)n3C)c1 (stereo not given)	i	-12%
Cc1cnc(C(=O)OCc2csc(CC(=O)Nc3ccccc3C)n2)cn1	-12%	-17%
Nc1nonc1-n1nnc(C(=O)N/N=C/c2cccnc2)c1CSc1ccccc1	?	-27%
Cc1nn(C)c2c1c(-c1ccccc1)cc(=O)n2C(C)C(=O)NCc1ccc(F)cc1 (stereo not given)	0%	3%
O=C(CSc1nc2ccsc2c(=O)n1Cc1ccccc1F)NCc1ccccc1Cl	2%	-5%
CCOC(=O)c1c(CN2CCOCC2)oc2ccc(OC(C)=O)cc12	-5%	-15%

Of the compounds above, these have an aryl thioether with sulfur outside any ring:
SMILES	VACV mCherry inh	Vaccinia Venus
COc1cc(-c2nnc(SCC(=O)Nc3cccc(C#N)c3)o2)cc(OC)c1OC	-17%	1%
Nc1nonc1-n1nnc(C(=O)N/N=C/c2cccnc2)c1CSc1ccccc1	?	-27%
O=C(CSc1nc2ccsc2c(=O)n1Cc1ccccc1F)NCc1ccccc1Cl	2%	-5%

Remaining list, next part:
SMILES	VACV mCherry inh	Vaccinia Venus
CC(C)(C)c1cc(CCC(=O)NCc2cccnc2)cc(C(C)(C)C)c1O	?	5%
COc1ccc(NS(=O)(=O)c2ccc(NC(=S)NC(=O)c3cccnc3)cc2)nn1	4%	5%
O=c1[nH]c(=S)[nH]c2c1[C@H](CCc1cccc(Cl)c1)O[C@H](C1CC1)C2	-20%	-6%
Cc1cc(C)c(-c2csc(NC(=O)C3=COCCO3)n2)c(C)c1	-26%	-23%
O=C(Nc1ccc(OCCO)cc1)c1csc([C@@H]2C[C@H](O)[C@@H](CO)O2)n1	4%	11%
COc1cc(C(C)=O)ccc1OCC(=O)NCC(c1ccc(F)cc1)N1CCOCC1 (stereo not given)	i	7%
COc1cc(C2Nn3c(nnc3-c3ccccc3OC)S2)ccc1O (stereo not given)	-11%	-5%
COc1cc2c(CCNC(C)=O)c[nH]c2cc1O	-1%	-16%
Cc1cccc(C)c1OCC(=O)Nc1ccc(S(=O)(=O)Nc2ccccn2)cc1	-23%	-11%
CSc1ccccc1C(=O)Nc1nccs1	-1%	3%
O=C(Nc1ccccc1N1CCCC1)c1cc(S(=O)(=O)N2CCOCC2)ccc1Cl	-8%	-9%
CCN1CCCC1CNC(=O)Cn1cccc1C(=O)c1ccccc1C (stereo not given)	.	-9%
CN(C)CCNC(=O)c1cc2sc3ccccc3c2s1	-28%	-14%
Cc1cccc(NC(=O)CN2C(=O)NC3(CCCC3)C2=O)n1	0%	2%
Cc1ccn2c(/C=N/OCc3cccc(F)c3)c(-c3ccc(Cl)cc3)nc2c1	0%	-20%
Oc1c(Br)cc(C2N=C(c3ccccc3Cl)NO2)cc1Br (stereo not given)	-23%	-12%
O=C(O)C[C@H]1c2cc(C(F)(F)F)ccc2S(=O)(=O)N1C1CCN(Cc2ccccc2)CC1	?	-8%
O=C(COC(=O)c1nsc(Cl)c1Cl)NC1CCCCC1	-22%	4%
O=C(c1ccc(NS(=O)(=O)c2cccs2)cc1)N1CCCCC1	-27%	-22%
C/C(=N\NC(=O)c1cc(Br)ccc1O)c1cccs1	i	-23%
N#Cc1ccc(CCc2ccccc2)[nH]c1=O	i	-4%
O=C(Nc1ccccc1C(=O)OCc1cc(=O)n2c3c(sc2n1)CCCC3)c1ccccc1	i	-11%
CCOc1ccc(C(=O)N2CCC3(CC2)NCCc2[nH]cnc23)cc1	-14%	-18%
CC(=O)Nc1ccc(S(=O)(=O)NCC2CCCO2)cc1 (stereo not given)	10%	22%
CCC(c1nnnn1-c1ccc2c(c1)OCCO2)N1CCN(Cc2c(F)cccc2Cl)CC1 (stereo not given)	i	9%
CN(C)S(=O)(=O)c1ccc(C(=O)Nc2nnc(Cc3ccccc3)s2)cc1	.	-14%
O=C(C1CC(=O)N(c2ccc(F)cc2)C1)N1CCN(c2ccccc2)CC1 (stereo not given)	0%	-6%
Oc1ccc2ccccc2c1-c1sc(Nc2ccccc2)n[n+]1-c1ccc(F)cc1	-8%	93%[activator]
O=C(CNC(=O)C12CC3CC(CC(C3)C1)C2)N/N=C\c1ccco1	i	-11%
C[C@H](O)[C@@H](C(=O)N1CCN(C(=O)OC(C)(C)C)CC1)n1cc(CCCCNC(=O)OC(C)(C)C)nn1	i	-13%

Reformatted with two lines to a compound: part of the list above
Screens in order: VACV mCherry inh	Vaccinia Venus
CC(C)CNC(=O)C1(C)CCCN1C(=O)c1cccnc1Oc1ccccc1 (stereo not given)
→ 17%	-9%
Cc1ccc(OCCCC(=O)Nc2nc3ccccc3[nH]2)cc1
→ -11%	-4%
Cc1cccc(Cn2c(N3CCCCC3C)nc3c2c(=O)[nH]c(=O)n3C)c1 (stereo not given)
→ i	-12%
Cc1cnc(C(=O)OCc2csc(CC(=O)Nc3ccccc3C)n2)cn1
→ -12%	-17%
Nc1nonc1-n1nnc(C(=O)N/N=C/c2cccnc2)c1CSc1ccccc1
→ ?	-27%

New compounds follow:
SMILES	VACV mCherry inh	Vaccinia Venus
O=C(O[C@@H]1Cc2c(O)cc(O)cc2OC1c1ccc(O)c(O)c1)c1cc(O)c(O)c(O)c1 (stereo not given in full)	-6%	-13%
Nc1nc(=S)c2ncn([C@@H]3O[C@H](CO)[C@@H](O)[C@H]3O)c2[nH]1	?	?
CCOC(=O)c1c(C)c(C(=O)Nc2ccc3c(c2)OCO3)c(C)n1C	-10%	-10%
Clc1ccc(Nc2ncn[nH]2)c(Cl)c1	6%	-4%
COc1c(F)c(F)cc2c(=O)c(C(=O)O)cn(C3CC3)c12	-6%	-11%
COc1ccc(C[C@H]2CN3C(=NC[C@H]3C)N2CCNC(=O)c2ccc(C)c(Br)c2)cc1	?	-9%
O=C(CN1C(=O)NC2(CCCC2)C1=O)N1CCCSC1=Nc1ccccc1	-28%	-17%
Cc1cc(C)c(CN2CCN(CCCn3cnc(C(=O)Nc4ccc(C)c(C)c4)n3)CC2)c(C)c1	i	0%
Cc1noc(C)c1COc1ccc(C(=O)NCC2CCCO2)cc1 (stereo not given)	i	-2%
CCCCNS(=O)(=O)c1ccc2nc(SCC(=O)Nc3cccc(F)c3)[nH]c2c1	-29%	?
CCOC(=O)Cc1csc(NC(=O)CSc2nnc(-c3ccc(NS(=O)(=O)CC)cc3)o2)n1	-14%	-9%
Cc1ccc(S(=O)(=O)c2cc3c(=O)n4ccccc4nc3n(Cc3ccco3)c2=N)cc1C	-20%	-9%
CCCCCCN[C@H]1CCC2C3CC=C4C[C@@H](O)CC[C@]4(C)C3CC[C@@]21C (stereo not given in full)	-30%	-3%
CCN1CCN(S(=O)(=O)c2ccc(Cl)c(C(=O)NC3CC3)c2)CC1	-13%	-3%
O=C(O)c1c(-c2ccccc2)oc2ccc(OCc3c(F)cccc3Cl)cc12	-11%	-10%
O=C(N/N=C/c1ccc2c(c1)OCO2)c1ccc(NS(=O)(=O)c2cccs2)cc1	-7%	-7%
COC(=O)/C(=C\c1c(OC)cc(OC)cc1OC)C(=O)c1ccc2c(c1)OCO2	i	-11%
COc1ccc(N(C(=O)CNC(=O)c2ccco2)C(C(=O)NCC2CCCO2)c2ccccc2)c(OC)c1 (stereo not given)	-4%	-9%
CN(C)c1ccc(/C=C(/C(=O)c2ccc(Cl)cc2Cl)n2cncn2)cc1	?	7%
COc1ccc(CSc2n[nH]c(=O)[nH]c2=O)cc1	-10%	-2%
CCOC(=O)c1cc(C(C)C)sc1NC(=O)COC(=O)c1nccnc1N	-17%	-11%
CCc1cc2cccc(C)c2nc1SCC(=O)c1ccc(NC(C)=O)cc1	-6%	-7%
COc1ccc(NC(=O)CS(=O)CC(=O)N2CCN(C3CCCC3)CC2)cc1 (stereo not given)	-20%	-16%
COc1ccccc1C1=Nn2c(nc3sc(C(=O)Nc4ccccc4Cl)c(C)c3c2=O)SC1	-17%	-14%
Cc1cc(C)n(-c2ncc(C#N)cn2)n1	-6%	-4%
COc1ccccc1/C=N\NC(=O)c1ccc(COc2ccc(C)c(C)c2)o1	?	8%
CS(=O)(=O)c1ccc(C(=O)NCc2ccc(F)cc2)cc1	i	-9%
COc1ccc(-c2nnc(SCC(=O)NC(C)c3ccccc3)o2)cc1OC (stereo not given)	.	?
O=C1CSC(c2cccnc2)N1c1ccc(Cl)cc1 (stereo not given)	-2%	-8%
CCCNC(=O)NC(=O)CSc1nc(C)cs1	?	-19%

Full records, quoted from the list. Values in the order: VACV mCherry inh	Vaccinia Venus
Results for CCCNC(=O)NC(=O)CSc1nc(C)cs1 → ?	-19%
Results for COc1ccccc1C1=Nn2c(nc3sc(C(=O)Nc4ccccc4Cl)c(C)c3c2=O)SC1 → -17%	-14%

New compounds follow
SMILES	VACV mCherry inh	Vaccinia Venus
COc1ccc(CN2CCNC(=O)C2CC(=O)NC2CCCCCCC2)cc1OC (stereo not given)	-14%	-2%
COc1ccccc1NS(=O)(=O)c1ccc(Cl)c(NC(=O)c2sc3cc(Cl)ccc3c2Cl)c1	i	10%
Cc1ccc2nc(COc3cccc(NC(=O)Nc4ccc(C)c(Cl)c4)c3)cc(=O)n2c1	-5%	-5%
COc1ccc2cc(/C=N/O)c(Cl)nc2c1	i	-1%
CCCn1c(SCC(=O)Nc2c(C)cccc2CC)nnc1C(C)C	?	?
CCN(CC)c1ccc(NS(=O)(=O)c2ccc(OC)cc2)cc1	-10%	-8%
O=[N+]([O-])c1cc(Cl)ccc1Oc1ccc(-c2nnco2)cc1	i	-10%
COc1ccc(-c2noc(N3CCN(c4ccc(Cl)cc4)CC3)n2)cc1OC	-16%	-17%
Cc1ccc(S(=O)(=O)N(C)C)cc1NC(=O)c1c(-c2c(F)cccc2Cl)noc1C	i	-2%
COc1cc2[nH]c(=O)n(CCC(=O)N3CCN(c4ccc(Cl)cc4)CC3)c(=O)c2cc1OC	-9%	-14%
CCOc1cc(C(=O)Nc2ccccc2F)cc(Br)c1OCC	-14%	9%
O=C(Nc1cccc(S(=O)(=O)C(F)(F)F)c1)[C@H]1C[C@H](O)[C@@H](CO)O1	9%	-2%
CCc1nnc(NC(=O)CSc2nc3c(c(=O)n2CC)SC(C)C3)s1 (stereo not given)	0%	-12%
COc1ccc2[nH]c(C)c(CN3CCC(C)CC3)c(=O)c2c1	-15%	-16%
